Screening data: PubChem BioAssay, National Center for Advancing Translational Sciences (NCATS)
miR-21 FLuc = qHTS Assay for Modulators of miRNAs and/orActivators of miR-21. HeLa miR-21 FLuc reporter, luciferase, 48 h. Potency, µM (highest dose often 38.3 µM), for inactives: top-dose reporter change, positive = more light. AID 2288, 2010. 340,000 tested, under 10 active; active = well fitted rising curve with a large enough effect; inconclusive = small, poorly fitted or top-dose-only effect; inactive = no such curve, though single readings can be large or run the other way;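 note: % of control where 0% means no effect; miR-21 action dims this reporter so a rising signal means less miR-21 action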
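HeLa miR-21-FLuc reporter line, endogenous miR-21; 2000 cells/well in DMEM/10% FBS; compound titration up to ~40uM final, 48 h, 37 degree Celsius; luciferase detection reagent, 15 min lysis, CCD luminescence.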
An asterisk follows results filed as active; ? = inconclusive. An excerpt; count on the stated rates, not on these rows.

SMILES | miR-21 FLuc
Cc1ccccc1NC(=O)C(=O)NCC(c1ccc2c(c1)OCO2)N1CCN(c2ccccc2)CC1 (stereo unspecified) | 12.1%
Cc1ccc(NC(=O)CSc2nccn2Cc2ccco2)cc1Cl | -41.8%
Cc1ccc(CNCc2ccc3c(c2)n(C)c(=O)n3C)cc1 | 5.2%
CC(=O)c1cccc(NS(=O)(=O)c2cc(-c3onc(C)c3C)ccc2C)c1 | 20.2%
Cc1ccc(-n2c3c(cc(-c4nc(-c5ccc(Cl)cc5)cs4)c2=O)C(=O)CC(C)(C)C3)cc1 | -0.1%
CCC(Oc1ccccc1)C(=O)Nc1cccc(OCc2cc(=O)n3cccc(C)c3n2)c1 (stereo unspecified) | -5.5%
COc1ccc(S(=O)(=O)c2nnn(-c3cc(Cl)c(OC)cc3OC)c2C)cc1 | 13.5%
Cc1ccc(CN(Cc2ccco2)C(=O)c2ccc(OCC(C)C)cc2)cc1 | -0.5%
Cc1ccsc1CN1CCc2nc(N3CCN(c4ccccc4F)CC3)ncc2C1 | 4.5%
COc1ccc(C)cc1NC(=O)c1cn(C)c(=O)c2cc(OC)c(OC)cc12 | -19.6%
Cc1oc(-c2cccc(Cl)c2)nc1Cn1c(SCc2ccc(F)cc2)nc2cccnc21 | -7.8%
O=C(CC(c1cccs1)N1Cc2ccccc2C1=O)Nc1ccc(F)cc1 (stereo unspecified) | 11.0%
CCOc1ccc(-n2nc3ccc(NC(=O)c4ccc(OC)c(Cl)c4)cc3n2)cc1 | -13.4%
COc1ccccc1NC(=O)CSc1nnc(NC(=O)Nc2ccc(C)cc2)s1 | 18.6%
COC(=O)c1c(NC(=O)c2ccc(C(C)(C)C)cc2)sc2c1CCC(C)C2 (stereo unspecified) | 0.4%
Cc1cccc(CNC(=O)c2cc3cc(S(=O)(=O)N4CCCCC4)ccc3n2C)c1 | 10.1%
Cc1cccc(N2CCN(C(=O)CCc3c(C)nc4c(c3C)c(=O)n(C)c(=O)n4C)CC2)c1C | 3.0%
CCOc1ccccc1CNCc1c(C(=O)O)c(C)n(Cc2ccc(C)cc2)c1C | -12.1%
O=S(=O)(c1ccccc1)c1nnn2c1nc(NC1CCCCC1)c1sccc12 | 4.7%
Cc1cccc(CN2CCC(CNC(=O)Cn3ncc4c([nH]c5ccc(C)cc54)c3=O)CC2)c1 | -0.4%

Of the compounds above, these contain fluorine:
SMILES | miR-21 FLuc
Cc1ccsc1CN1CCc2nc(N3CCN(c4ccccc4F)CC3)ncc2C1 | 4.5%
Cc1oc(-c2cccc(Cl)c2)nc1Cn1c(SCc2ccc(F)cc2)nc2cccnc21 | -7.8%
O=C(CC(c1cccs1)N1Cc2ccccc2C1=O)Nc1ccc(F)cc1 (stereo unspecified) | 11.0%

(cont.)
SMILES | miR-21 FLuc
COC(=O)c1sccc1S(=O)(=O)N(CC(=O)NCc1ccccc1)c1ccc(C)c(C)c1 | -0.4%
CCc1ccc(-n2c(=O)c3sc4ccccc4c3n(CC(=O)NC3CCCC3)c2=O)cc1 | -7.0%
O=C(NC1(C(F)(F)F)C(=O)Nc2c1c(=O)[nH]c(=O)n2-c1ccccc1)c1ccccc1 (stereo unspecified) | 0.3%
Cc1[nH]c2ccccc2c1C(=O)C(=O)NC1CC(=O)N(c2ccccc2)C1 (stereo unspecified) | -1.0%
COc1ccc(-n2nc3c(c2NC(=O)C(=O)NCc2ccccc2)CSC3)cc1 | -1.8%
Cc1ccc(C)c(C(=O)CSc2nc(-c3ccccc3)nc3c2CCCC3)c1 | -7.1%
CC(=O)c1cccc(NC(=O)C2CCN(S(=O)(=O)c3ccc4c(c3)CCCN4C(C)=O)CC2)c1 | 0.6%
O=C(CCCN1C(=O)C(c2ccccc2)Oc2cccnc21)Nc1ccccc1C(F)(F)F (stereo unspecified) | -8.1%
Cc1ccc(Cl)cc1N1CCN(C(=O)c2cc(S(=O)(=O)N3CCCCCC3)cn2C)CC1 | 17.1%
COc1cc(C2CC(=O)Nc3cc4c(cc32)OCCO4)cc(OC)c1O (stereo unspecified) | 17.9%
CCCCn1c(NCc2cc(Cl)ccc2O)nc2ccccc21 | 13.1%
COc1ccc(-n2c(SCC(=O)NC3CCCCC3)nc3c([nH]c4ccccc43)c2=O)cc1 | -0.7%
Cc1ccc(OCC(=O)Nc2ccc(S(=O)(=O)Nc3cc(C)nc(C)n3)cc2)c(Br)c1 | -5.3%
COc1ccc(-c2nc(CN3CCC(C(=O)NCCN(CC(C)C)CC(C)C)CC3)c(C)o2)cc1OC | -8.6%
CCc1ccc(NC(=O)CSc2nc(C)c(C(=O)Nc3ccccc3)c(-c3ccc(OC)c(OC)c3)c2C#N)cc1 | -23.1%
Cc1ccc2oc(C(=O)Nc3cccc(-c4nc5ccccc5s4)c3)c(C)c2c1 | -44.2%
CC(C)(C)OC(=O)N1CCC(c2c(C(=O)N3CCCCC3)cnn2-c2ccc(F)cc2F)CC1 | -1.7%
Nc1ccc2nc(-c3ccc(O)cc3)sc2c1 | -1.6%
N#Cc1nc(-c2ccc(COc3ccccc3)o2)oc1N1CCCCC1 | -9.9%
CC(C)Oc1ccc(C(=O)N2CCCCC2CCN2CCCCC2)cc1 (stereo unspecified) | 2.5%
COc1ccc(S(=O)(=O)N2CCC(n3c(C(F)(F)F)nc4cccnc43)CC2)cc1OC | -14.8%
O=S(=O)(c1cccc(F)c1)N1CCC(Oc2ccc(-n3cnnn3)cc2)CC1 | 28.6%
Oc1ccccc1-c1nc2cnccn2c1Nc1ccc(Cl)cc1 | 24.9%
COc1cc2ccccc2cc1C(=O)N1CCN(c2nc3c(F)cccc3s2)CC1 | 0.8%
CCc1cccc(NC(=O)c2cc(-c3ccccc3)n[nH]2)c1 | -16.1%
CCN(CC)C(=O)c1sc(NC(=O)C(C)Sc2nc(-c3ccccc3)cc(C(F)(F)F)n2)c(C(=O)OC)c1C (stereo unspecified) | 17.3%
CCCN(C(=O)CCc1nc(-c2ccc(C)cc2)no1)c1ccc(OCC)cc1 | 9.2%
COc1ccc(S(=O)(=O)NCCc2sc(-c3cccc(F)c3)nc2C)cc1 | -8.8%
COc1ccc(OC)c(NC(=O)Cn2cnc3sc(C)c(S(=O)(=O)N4CCN(c5ccccc5OC)CC4)c3c2=O)c1 | 24.7%
CCOc1ccc(CNC(=O)C2CCN(S(=O)(=O)c3cn(C)cn3)CC2)cc1 | 3.1%
COc1cccc(CNC(=O)c2cccc(-n3c(C)nc4cccnc43)c2)c1OC | 9.7%
Cc1ccccc1OCc1ccc(-c2nc(C#N)c(N3CCCCC3)o2)o1 | 3.4%
CC(C)c1ccc(OCC(=O)Nc2c(Cl)ccc3nsnc23)cc1 | 0.7%
CCc1ccc(-n2c(=O)c3cccnc3n2CC(=O)NCc2ccc(F)cc2)cc1 | 0.8%
Cc1ccc(CNC(=O)CCCn2c(=O)c3ccccc3n(Cc3ccc(Cl)cc3)c2=O)cc1 | 4.9%
COc1cc(C2CC(=O)N(Cc3cccc(F)c3)c3ccccc3S2)cc(OC)c1OC (stereo unspecified) | ?
COc1ccc(NCc2cc3ccc(OC)cc3n(CC(=O)Nc3cccc(OC)c3)c2=O)cc1 | 0.2%
COc1ccc(C(=O)Nc2ccccc2-c2nc3ccccc3s2)c(OC)c1 | -2.1%
Cc1cc(F)ccc1NC(=O)CCn1nc(C)c(S(=O)(=O)N2CCCCC2)c1C | -1.8%
COc1ccc(N(C(=O)c2ccncc2)S(=O)(=O)c2ccc(F)cc2)cc1 | 4.5%
CCOc1ccc(CNC(=O)c2cnc3sc(N4CCOCC4)nn3c2=O)cc1 | 0.2%
Cc1ccc(NC(=O)CN(CCc2ccccc2)S(=O)(=O)c2ccccc2)c(C)c1 | 18.6%
CCCCNS(=O)(=O)c1ccc(NC(=O)c2c(-c3ccccc3)noc2C)cc1 | ?
COc1cc(-c2nc(Cn3nnc(C(=O)Nc4cc(C)cc(C)c4)c3C)c(C)o2)cc(OC)c1OC | -1.6%
CCN(Cc1ccccc1)C(=O)c1cc2c(=O)[nH]c3ccc(C)cc3c2s1 | 4.1%
COc1ccc(C2c3cccn3CCN2S(=O)(=O)c2ccc([N+](=O)[O-])cc2)cc1 (stereo unspecified) | 2.9%
COc1cccc(N2CCN(C(=O)CN3CCSc4ccccc43)CC2)c1 | 11.0%
Cc1ccc(C)c(CNC(=O)C2CCN(c3nc4ccccc4nc3C(F)(F)F)CC2)c1 | -0.9%
Cc1cccc(CSc2nc3c([nH]c4ccccc43)c(=O)n2C)c1 | 0.2%
CCn1c(SCc2cccc(Br)c2)nnc1-c1nonc1NC(C)=O | 23.6%
CCOC(=O)c1cccc(NC(=O)c2cc3c(=O)n(C)c4ccccc4c3n2C)c1 | -2.2%
CCn1c(=O)c2cc(C(=O)N3CCN(c4cccc(Cl)c4)CC3)sc2c2ccccc21 | 0.9%
COC(=O)c1ccc(NC(=O)CC2C(=O)N(c3ccccc3)C(=O)N2Cc2cccs2)cc1 (stereo unspecified) | -3.1%
COc1ccc(C(=O)NCC(c2ccco2)S(=O)(=O)c2ccccc2)cc1 (stereo unspecified) | -6.5%
COc1cc2c(C(=O)N3CCN(c4cccc(C)c4)C(C)C3)cn(CC(C)C)c(=O)c2cc1OC (stereo unspecified) | 11.4%
COCCn1c(SCC(=O)c2ccccc2)nc2cc(C(=O)NC3CCCC3)ccc2c1=O | 6.6%
COc1ccccc1CNC(=O)c1cnc(SC)nc1C | 0.0%
COc1ccc(-c2nnc(SCc3cc(=O)c4cc(C)cc(C)c4[nH]3)n2C)cc1 | -0.7%
COc1ccc2oc(=O)c(-c3csc(-c4ccc(Br)cc4)n3)cc2c1 | -1.0%
CCc1ccc(-c2nc(CSCC(=O)NCc3ccccc3OC)c(C)o2)cc1 | 13.0%

6 entries drawn at random from the list so far, as already listed:
SMILES | miR-21 FLuc
COc1cc(-c2nc(Cn3nnc(C(=O)Nc4cc(C)cc(C)c4)c3C)c(C)o2)cc(OC)c1OC | -1.6%
COc1ccc(C(=O)NCC(c2ccco2)S(=O)(=O)c2ccccc2)cc1 (stereo unspecified) | -6.5%
CCOC(=O)c1cccc(NC(=O)c2cc3c(=O)n(C)c4ccccc4c3n2C)c1 | -2.2%
Cc1cccc(CSc2nc3c([nH]c4ccccc43)c(=O)n2C)c1 | 0.2%
CCCCNS(=O)(=O)c1ccc(NC(=O)c2c(-c3ccccc3)noc2C)cc1 | ?
COc1ccc(C2c3cccn3CCN2S(=O)(=O)c2ccc([N+](=O)[O-])cc2)cc1 (stereo unspecified) | 2.9%

Next part:
SMILES | miR-21 FLuc
Cc1cc2oc(C(=O)Nc3sc4c(c3C(=O)NCc3ccco3)CCC4)cc(=O)c2cc1C | -0.5%
CCN(c1ccccc1)S(=O)(=O)c1ccc2[nH]cc(C(=O)NC3CCCCC3)c(=O)c2c1 | 27.8%
CC(C)(C)OC(=O)N1CCC(c2c(C(=O)NCc3ccco3)cnn2-c2ccccc2)CC1 | 3.7%
CCOC(=O)c1ccc(CN(Cc2ccc(Br)cc2)S(=O)(=O)c2cccc(C(F)(F)F)c2)cc1 | 3.1%
COc1ccc(-c2nnc(SCC(=O)Nc3ccc(F)cc3)s2)cc1 | -29.7%
Cc1ccc(CSc2ncc(Cl)c(C(=O)Nc3sc4c(c3C(N)=O)CCCC4)n2)cc1 | -3.7%
CCOC(=O)C1CCC(CN(Cc2ccc(OC)cc2)S(=O)(=O)c2ccc(C)cc2)CC1 (stereo unspecified) | -3.5%
O=C(CC1N=C2c3ccccc3N=C(SCC(=O)Nc3cccc(Cl)c3)N2C1=O)NCc1cccs1 (stereo unspecified) | ?
CC(=O)N1c2ccc(S(=O)(=O)N(C)CC(=O)N(Cc3ccccc3)C(C)C)cc2CC1C (stereo unspecified) | 2.5%
COc1ccc(-c2cc(C(F)(F)F)nc(SCC(=O)NCc3ccc(OC)c(OC)c3)n2)cc1 | -5.0%
COC(=O)c1ccccc1NC(=O)c1cc2c(-c3ccc(OC)c(OC)c3)nn(C)c2s1 | -1.0%
COc1ccccc1N1CCN(C(=O)c2ccc(CS(=O)c3ccccc3C)o2)CC1 (stereo unspecified) | 21.4%
COc1ccc(OC)c(CNS(=O)(=O)c2c(C(=O)N3CCC(C)CC3)c(C)n(C)c2C)c1 | -3.3%
CCC(=O)Nc1ccc2nc(SCC(=O)N3CCc4ccccc43)sc2c1 | 22.3%
O=C(CCS(=O)(=O)c1cc2c3c(c1)CCN3C(=O)CC2)Nc1cccc(Br)c1 | -0.9%
Cc1ccc(S(=O)(=O)CCC(=O)N2CCN(c3nc4c(C)c(C)ccc4s3)CC2)cc1 | 3.1%
COCCCNC(=O)c1ccc(Cn2c(SCc3cccc(C)c3)nc3cccnc32)cc1 | -28.2%
O=C(CCc1ccccc1)N1CCc2c([nH]c3ccccc23)C1c1ccc(F)cc1 (stereo unspecified) | -2.3%
COc1ccccc1NC(=O)CC(c1cc(OC)c(OC)c(OC)c1)N1Cc2ccccc2C1=O (stereo unspecified) | -1.9%
CCOc1ccccc1N1CCN(S(=O)(=O)c2ccc(C3CCCCC3)cc2)CC1 | 8.9%
Cc1ccc2[nH]c(=O)c3cc(C(=O)N4CCN(c5ccccc5)CC4)sc3c2c1 | -3.7%
O=C(NC1CC(=O)N(c2ccc3c(c2)OCCO3)C1)c1c(F)cccc1Cl (stereo unspecified) | -4.7%
Cc1ccc(NC(=O)COc2ccc(-c3nn(C)c(=O)c4ccccc34)cc2)cc1 | 19.6%
CC1=C(C(N)=O)C(c2cccc(Br)c2)n2nc(SCc3ccccc3)nc2N1 (stereo unspecified) | -2.4%
Cc1cccc(C)c1OCC(=O)N1CCC(c2nc3ccccc3o2)CC1 | 2.7%
Cc1ccc(S(=O)(=O)NCC(Nc2cccc(Cl)c2)c2ccccc2)cc1 (stereo unspecified) | ?
Cc1ccc(OCC(=O)OCc2cc(=O)n3nc(C4CCCCC4)sc3n2)cc1 | -0.3%
CCCCOc1ccc(C(=O)NCC2(N3CCN(C)CC3)CCCCC2)cc1 | -16.3%
CCCCN(C)CCCNC(=O)Cn1nc(CC)n2c(cc3sc(C)cc32)c1=O | -7.5%
Cc1ccccc1-c1nnc(CN2CCN(c3cccc(C)c3C)CC2)o1 | -0.4%
